Screening results from PubChem BioAssay.
DNA FID counter: fluorescent intercalator displacement, NS3 helicase counter-screen | DNA fluorescent intercalator displacement, fluorescence | 0.17% of 290,000 active | AID 1845 | inhibition, % at 7.9 µM; in the data active = inhibition above about 37%;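 note: 0% = vehicle and 100% = reference compound; higher means more ethidium bromide displaced from hairpin DNA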
VIM-2 inhibitor: inhibitors of Pseudomonas aeruginosa VIM-2 metallo-beta-lactamase | purified VIM-2, nitrocefin hydrolysis, epi-absorbance fluorescence | AID 1527 | 0.89% of 290,000 active | inhibition, % at 5.6 µM;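 active = inhibition above the mean of all tested compounds plus 3 SD, cutoff set per screening run, cut at about 7.5% in these data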;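 note: red hydrolysis product quenches plate fluorescence so inhibitors raise well fluorescence; 0% = enzyme with DMSO and 100% = DMSO without enzyme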
GalR3 antagonist: blocks the human galanin receptor 3. HEK293 GalR3-CNG cAMP membrane potential fluorescence; galR3 body fused to GalR1 C-terminus. inhibition, % at 3 µM. 0.44% of 360,000 active. AID 651719;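 active = inhibition above the screen-wide average plus 3 SD, cut at about 13% in these data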;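 note: forskolin and galanin both at EC90 stimulate the cells; cAMP rise reported by CNG channel membrane potential dye signal; 0% = forskolin plus galanin with DMSO and 100% = forskolin alone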
Target sequence (O60755 1-299 limits assumed): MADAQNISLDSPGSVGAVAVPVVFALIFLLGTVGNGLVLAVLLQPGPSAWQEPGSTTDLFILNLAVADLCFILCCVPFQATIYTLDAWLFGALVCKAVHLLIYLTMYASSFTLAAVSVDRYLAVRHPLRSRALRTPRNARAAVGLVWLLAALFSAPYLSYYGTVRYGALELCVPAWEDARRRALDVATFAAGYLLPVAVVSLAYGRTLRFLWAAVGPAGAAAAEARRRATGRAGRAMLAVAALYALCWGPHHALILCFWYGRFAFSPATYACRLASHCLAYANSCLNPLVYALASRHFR
PHOSPHO1 block: inhibitors of human PHOSPHO1 phosphatase; Q8TCT1; recombinant PHOSPHO1, absorbance phosphatase assay; inhibition, % at 13.3 µM; 1.1% of 290,000 active; in the data active = inhibition above about 60%
Target sequence (Q8TCT1 whole entry, looked up): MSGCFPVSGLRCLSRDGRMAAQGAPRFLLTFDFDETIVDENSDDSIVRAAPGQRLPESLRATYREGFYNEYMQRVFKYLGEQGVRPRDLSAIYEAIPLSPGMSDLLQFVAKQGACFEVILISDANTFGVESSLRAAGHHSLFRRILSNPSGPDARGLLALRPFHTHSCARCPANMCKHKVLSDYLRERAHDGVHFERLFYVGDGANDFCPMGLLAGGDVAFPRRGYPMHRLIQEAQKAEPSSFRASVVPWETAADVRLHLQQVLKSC
GPR7 antagonist: human neuropeptides B/W receptor 1 antagonism; GPR7-expressing cells, fluorescence antagonist assay; P48145; inhibition, % at 4.4 µM; 1.1% of 290,000 active; in the data active = inhibition above about 16%, passing the limit was not always enough;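 note: cells stimulated with the agonist NPW; 0% = agonist with vehicle and 100% = vehicle without agonist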
NS3 helicase inh: blocks Hepatitis C virus NS3 helicase unwinding; NS3 helicase DNA unwinding, Cy5 molecular beacon fluorescence; inhibition, % at 10.9 µM; 0.56% of 290,000 active;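 active = inhibition above the mean of all tested compounds plus 3 SD, set per campaign, cut at about 35% in these data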;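 note: 0% = DMSO wells and 100% = thioflavine S control wells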
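Control set: DMSO versus 110 µM thioflavine S; Material: NS3 helicase fragment of HCV; Measured by: Cy5 fluorescence at 0 and 60 min, beacon hairpin quenching; Read-out basis: percent inhibition from t60/t0 fluorescence ratio; Times: reaction time 60 min, 25 °C; Repeats: single replicate; Compound dosing: single dose, 10.9 µM nominal final, DMSO 0.8% final.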
IMP-1 inh: inhibitors of Pseudomonas aeruginosa IMP-1 metallo-beta-lactamase; purified IMP-1, nitrocefin hydrolysis, epi-absorbance fluorescence; inhibition, % at 5.6 µM; 0.45% of 290,000 active;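 active = inhibition above the mean plus 3 SD of all compounds in the same screening run, cut at about 4.5% in these data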;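 note: 0% = IMP-1 with DMSO and 100% = DMSO wells lacking enzyme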
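System – purified recombinant IMP-1 beta-lactamase · Input – IMP-1 dispensed at 0.2 nM · Timing – 15 min preincubation plus 25 min reaction at 25 °C · Signal – Epi-absorbance fluorescence, 480 nm excitation, 530 nm emission · Measure – percent IMP-1 inhibition derived from blank-referenced optical density · Controls – Enzyme-plus-DMSO low control, enzyme-free DMSO high control · Replication – singlicate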
Starred values were filed as active, the others as inactive; · = no result given; & = joins results of further samples. An excerpt. The share of hits here may be higher or lower than overall.

[1] O=C(O)CCCCC1SCC2NC(=O)NC21 (stereo not given)
[2] CN1CCN(C2=Nc3cc(Cl)ccc3Nc3ccccc32)CC1
[3] OC(CCN1CCCC1)(c1ccccc1)C1CCCCC1 (stereo not given)
[4] CC(C)NCC(O)COc1cccc2[nH]ccc12 (stereo not given)
[5] CC(=O)Nc1nnc(S(N)(=O)=O)s1
[6] COc1ccc(OC)c(C(O)CNC(=O)CN)c1 (stereo not given)
[7] COc1ccccc1OCC(O)CO (stereo not given)
[8] COc1cc(Cc2cnc(N)nc2N)cc(OC)c1OC

screen / no.,1,2,3,4,5,6,7,8
IMP-1 inh,-3.2&0.6,-4.6,-1.7,-0.5,-1.8,·,-3.0,-4.3&0.0
GPR7 antagonist,-4&18,-7,5,-17,-2,·,-7,-2&-6
GalR3 antagonist,-2,-7,-3,·,0,-2,·,1
VIM-2 inhibitor,-0.2&-1.9,-2.6,-3.7,-3.2,-2.0,·,1.1,-4.9&-2.2
DNA FID counter,0&-2,-1,8,0,-2,·,2,2&-11
NS3 helicase inh,-6&-7,1,-4,-3,-1,·,5,-3&0
PHOSPHO1 block,20&8,6,1,44,4,·,20,-10&6

[9] COc1ccc(NS(=O)(=O)c2ccc(N)cc2)nn1
[10] CCCCN1CCCCC1C(=O)Nc1c(C)cccc1C (stereo not given)
[11] CCC1OC(=O)C(C)C(OC2C[C@@](C)(OC)C(O)C(C)O2)C(C)C(O[C@@H]2OC(C)CC(N(C)C)C2O)[C@](C)(O)CC(C)C(=NOCOCCOC)C(C)C(O)[C@]1(C)O (stereo not given in full)
[12] O=c1[nH]c(=O)n([C@H]2C[C@H](O)[C@@H](CO)O2)cc1C(F)(F)F
[13] CC1(C)S[C@@H]2[C@H](NC(=O)Cc3ccccc3)C(=O)N2[C@H]1C(=O)O
[14] COc1ccc2c(c1OC)C(=O)O[C@@H]2[C@H]1c2c(cc3c(c2OC)OCO3)CCN1C
[15] CCN(CC)Cc1cc(Nc2ccnc3cc(Cl)ccc23)ccc1O
[16] CC[C@H](CO)NCCN[C@H](CC)CO

screen / no.,9,10,11,12,13,14,15,16
IMP-1 inh,-2.7,·,·,-0.8,-1.9&-3.5,-1.9,-2.3,-3.5
GPR7 antagonist,-17,·,·,-3,-7&-2,-9,-5,-3
GalR3 antagonist,·,-6,-4,-1,-3&-9,1,-2&-2,2
VIM-2 inhibitor,-1.1,·,·,-1.2,-2.2&-4.6,-1.1,4.3,-1.3
DNA FID counter,-4,·,·,-6,-34&-13,-8,69*,5
NS3 helicase inh,6,·,·,3,5&4,-2,26,-1
PHOSPHO1 block,-9,·,·,16,6&33,-19,25,-1

Compounds listed so far that have a Cl atom:
[2] CN1CCN(C2=Nc3cc(Cl)ccc3Nc3ccccc32)CC1
[15] CCN(CC)Cc1cc(Nc2ccnc3cc(Cl)ccc23)ccc1O

screen / no.,2,15
IMP-1 inh,-4.6,-2.3
GPR7 antagonist,-7,-5
GalR3 antagonist,-7,-2&-2
VIM-2 inhibitor,-2.6,4.3
DNA FID counter,-1,69*
NS3 helicase inh,1,26
PHOSPHO1 block,6,25

(next part)
[17] O=C(O)Cc1ccc(-c2ccccc2)cc1
[18] CCN(CC)CCOC(=O)C1(C2CCCCC2)CCCCC1
[19] O=C1CC2(CCCC2)CC(=O)N1CCCCN1CCN(c2ncccn2)CC1
[20] CN1CCN2c3ccccc3Cc3ccccc3C2C1 (stereo not given)
[21] COCCc1ccc(OCC(O)CNC(C)C)cc1 (stereo not given)
[22] CO/N=C(\C(=O)N[C@@H]1C(=O)N2C(C(=O)O)=C(COC(C)=O)CS[C@H]12)c1csc(N)n1 (stereo in doubt)
[23] CC(C(=O)O)c1ccc(CC2CCCC2=O)cc1 (stereo not given)
[24] Clc1ccc2c(c1)C(N1CCNCC1)=Nc1ccccc1O2

screen / no.,17,18,19,20,21,22,23,24
IMP-1 inh,-2.8,-4.6,-1.9,0.8,0.2,-2.8,·,-1.3
GPR7 antagonist,12,0,10,7,-1,-8,·,2
GalR3 antagonist,·,·,-1,·,-2&-3,-4&-4,-4,-7
VIM-2 inhibitor,-2.3,-3.2,-2.0,3.5,0.0,-4.8,·,-0.8
DNA FID counter,-1,8,-4,19,6,0,·,-3
NS3 helicase inh,1,-11,-4,-19,5,2,·,-9
PHOSPHO1 block,6,11,1,1,-14,1,·,-9

[25] CCCCc1nc(Cl)c(CO)n1Cc1ccc(-c2ccccc2-c2nn[nH]n2)cc1
[26] C[C@H]1C[C@@H]2[C@H]([C@@H](O)C[C@@]3(C)[C@H]2CC[C@]3(O)C(=O)CO)[C@@]2(C)C=CC(=O)C=C12
[27] COC(=O)C1=C(C)NC(C)=C(C(=O)OCC(C)C)C1c1ccccc1[N+](=O)[O-] (stereo not given)
[28] O=C(NC(CO)C(O)c1ccc([N+](=O)[O-])cc1)C(Cl)Cl (stereo not given)
[29] Cc1ccnc(NS(=O)(=O)c2ccc(N)cc2)n1
[30] Cn1cnc([N+](=O)[O-])c1Sc1ncnc2nc[nH]c12
[31] CCC(CO)NCCNC(CC)CO (stereo not given)
[32] Cc1cccc(C)c1NC(=O)CN1CCN(CCCC(c2ccc(F)cc2)c2ccc(F)cc2)CC1

screen / no.,25,26,27,28,29,30,31,32
IMP-1 inh,-4.3,-1.8,·,0.2,-2.9,-1.4,-0.4,·
GPR7 antagonist,-14,-4,·,20,0,3,13,·
GalR3 antagonist,-1,·,-2,-1,·,-4,·,-3
VIM-2 inhibitor,-2.3,-0.4,·,2.6,0.9,-1.6,-0.9,·
DNA FID counter,-28,-17,·,2,3,-2,3,·
NS3 helicase inh,-17,-3,·,-4,-17,8,10,·
PHOSPHO1 block,41,-6,·,-24,-14,6,-16,·

Grouped by structure: the entries above with an aryl methoxy group.
[6] COc1ccc(OC)c(C(O)CNC(=O)CN)c1 (stereo not given)
[7] COc1ccccc1OCC(O)CO (stereo not given)
[8] COc1cc(Cc2cnc(N)nc2N)cc(OC)c1OC
[9] COc1ccc(NS(=O)(=O)c2ccc(N)cc2)nn1
[14] COc1ccc2c(c1OC)C(=O)O[C@@H]2[C@H]1c2c(cc3c(c2OC)OCO3)CCN1C

screen / no.,6,7,8,9,14
IMP-1 inh,·,-3.0,-4.3&0.0,-2.7,-1.9
GPR7 antagonist,·,-7,-2&-6,-17,-9
GalR3 antagonist,-2,·,1,·,1
VIM-2 inhibitor,·,1.1,-4.9&-2.2,-1.1,-1.1
DNA FID counter,·,2,2&-11,-4,-8
NS3 helicase inh,·,5,-3&0,6,-2
PHOSPHO1 block,·,20,-10&6,-9,-19

(list continues)
[33] CCc1cccc2c3c([nH]c12)C(CC)(CC(=O)O)OCC3 (stereo not given)
[34] CC(=O)[C@@]1(O)CC[C@H]2[C@@H]3C[C@H](C)C4=CC(=O)C=C[C@]4(C)[C@@]3(F)[C@@H](O)C[C@@]21C
[35] NCCCC[C@H](N[C@@H](CCc1ccccc1)C(=O)O)C(=O)N1CCC[C@H]1C(=O)O
[36] CNCCc1ccccn1
[37] CCN(CC)C(=O)[C@]1(c2ccccc2)C[C@@H]1CN
[38] O=C(CCCN1CCC(O)(c2ccc(Cl)cc2)CC1)c1ccc(F)cc1
[39] CCOC(=O)C1=C(COCCN)NC(C)=C(C(=O)OC)C1c1ccccc1Cl (stereo not given)
[40] CC/C(=C(/CC)c1ccc(O)cc1)c1ccc(O)cc1

screen / no.,33,34,35,36,37,38,39,40
IMP-1 inh,0.7,-3.0,-2.2,-1.1,-1.8,-2.2&-2.9,·,-1.3
GPR7 antagonist,-9,-1,-5,2,-7,0&7,·,-12
GalR3 antagonist,·,-3,-3&4,·,·,-4,-7,-2
VIM-2 inhibitor,-1.6,-1.4,-1.8,-0.2,-2.5,-2.7&-2.4,·,-1.9
DNA FID counter,-20,-20,-3,0,0,27&19,·,-3
NS3 helicase inh,4,-5,7,2,-7,-21&-6,·,-4
PHOSPHO1 block,1,-1,37,1,16,-14&24,·,24
